Bead autofluor = compound fluorescence in toxin protease inhibitor counterscreen; compound autofluorescence counterscreen, microsphere flow cytometry; active compounds read high; fluorescence intensity (test concentration not listed); hit rate 3.1% among 360,000; AID 624483;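 active means at least 3 SD above the mean of all compounds, about 16000 in these data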;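 further: 100 nL of 1 mM stock went into each well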
* marks the source's active call; other numbers are inactive results.

No. | Compound | Bead autofluor
1 | CCOC(=O)[C@]12CCCC=C1N(Cc1ccc(Cl)cc1Cl)C(=O)[C@H](CC(=O)NCc1ccc(C)o1)C2 | 4292
2 | COc1ccc(C(=O)c2[nH]c(N)c(C(=O)NCCc3c[nH]c4ccccc34)c2-c2ccc(Br)cc2)cc1 | 4340
3 | CN(Cc1ccccc1)c1cc2c(c3c1ccn3C)C1CCC2O1 (stereo unspecified) | 5397
4 | CCN(CC(=O)Nc1c(F)cccc1F)C(=O)CCCN1C(=O)c2cccc3cccc(c23)C1=O | 3948
5 | CCOC(=O)C1(C)CCCN(C(=O)c2ccc3ccccc3c2)C1 (stereo unspecified) | 3938
6 | Cc1ccc(C)c(C(O)c2ncc(-c3ccc(C(F)(F)F)cc3)[nH]2)c1 (stereo unspecified) | 2897
7 | CN(C)CCNc1cccc2sc3ccc(O)cc3c(=O)c12 | 5890
8 | O=C(Nc1cc(F)ccc1F)c1ccc2c(=O)n3c(nc2c1)CCC3 | 3057
9 | Cc1ccc(-n2c(=S)[nH]c3ccc(C)cc3c2=O)cc1 | 3816
10 | N#CC(C#N)c1ccnc2ccccc12 | 3824
11 | CC(C)C[C@H]1CN(CCCC[C@H]2CNC(=O)C(=O)N2CCC2CCCCC2)C(=O)C(=O)N1CCC1CCCCC1 | 5621
12 | NC(CO)c1csc(NC(=O)Nc2ccccc2Cc2ccccc2)n1 (stereo unspecified) | 2967
13 | COc1ccc(NC(=O)c2cc(-c3ccc(F)cc3OC)n[nH]2)c(C)c1 | 3595
14 | CC(C)[C@@H]1Cc2[nH]n(C)c(=O)c2[C@H](c2ccc(F)cc2)O1 | 6400
15 | CCn1cc(CN2CCCC(C(=O)Nc3cccc(-n4cccn4)c3)C2)cn1 (stereo unspecified) | 3822
16 | CC1(C(=O)NS(=O)(=O)C2CC2)CCN(C(=O)c2ccc(F)c(Cl)c2)C1 (stereo unspecified) | 3866
17 | COc1ccccc1Cc1c(-c2cccc(Br)c2)nc2ccc(Br)cn12 | 5489
18 | CC(=O)Nc1ccc(-c2ccnc3c2CC(C(=O)NCC2CC2)O3)cc1 (stereo unspecified) | 4009
19 | O=C(Nc1ccccc1)c1cc(C2CCCN(C(=O)C/C=C/c3ccccc3)C2)on1 (stereo unspecified) | 3748
20 | COc1cc(C(C)n2nnc3ccccc32)ccc1O (stereo unspecified) | 3374
21 | CCOC(=O)[C@]12CCCC=C1N(Cc1cccc3ccccc13)C(=O)[C@H](CC(=O)N1CCN(C(=O)C3CC3)CC1)C2 | 5453
22 | COc1ccc(CCC(=O)Nc2ccc(S(=O)(=O)N3CCOCC3)cc2)cc1OC | 3209
23 | CC(=O)c1ccc(OCC(=O)N(C)C2CCS(=O)(=O)C2)cc1 (stereo unspecified) | 3589
24 | COc1cc(OC)nc(C(NC(=O)C2CCN(Cc3ccc(Oc4ccccc4)cc3)CC2)c2ccccc2C)n1 (stereo unspecified) | 4076
25 | COc1ccc(-c2coc3c(C(=O)NCCN(C)C)cccc23)c(C)c1 | 3534
26 | CC1(C(=O)NS(=O)(=O)c2ccc(F)cc2F)CCN1C(=O)CC1CC1 (stereo unspecified) | 3826
27 | COc1ccc(C(C)=O)cc1CC1(C)C(=O)Nc2ccc(-c3cccc(C(F)(F)F)c3)cc21 (stereo unspecified) | 3704
28 | CN(Cc1ccccc1)S(=O)(=O)c1ccc(Cl)c(C(=O)N2CCOCC2)c1 | 3810
29 | OC[C@@H]1CN(Cc2ccc(F)cc2)C[C@H](n2cnc3c(Nc4ccccc4)ncnc32)O1 | 2851
30 | Cc1cccc(N(C)c2cc(-c3ccc(F)cc3)nc3ccnn23)c1 | 3372
31 | CSCCNC(=O)C1(C)CCN1C(=O)c1ccc(C(C)(C)C)cc1 (stereo unspecified) | 3687
32 | Cc1ccc(C(NC(=O)C2CCN(CCCOc3ccccc3)CC2)c2ccccn2)cc1 (stereo unspecified) | 3003
33 | CCC(c1nnnn1-c1ccc2c(c1)OCCO2)N1CCN(C/C=C/c2ccccc2)CC1 (stereo unspecified) | 6508
34 | COCCCN(Cc1cc(OC)c(OC)c(OC)c1)C(=S)Nc1cccc(SC)c1 | 3784
35 | CC(C)N1CCC1(C)C(=O)Nc1ccc2scnc2c1 (stereo unspecified) | 3071
36 | C[C@H](NC(=O)C1CCN(S(=O)(=O)c2ccccc2)CC1)C(=O)NC1CC1 | 3211
37 | CC(C)C1C(=O)N(Cc2cn(Cc3ccco3)nn2)CCS(=O)(=O)N1Cc1ccc(-c2ccc(Cl)c(Cl)c2)cc1 (stereo unspecified) | 3966
38 | O=C(Nc1ccc(Oc2ccccc2)cc1)c1csc([C@@H]2C[C@H](O)[C@@H](CO)O2)n1 | 3493
39 | COc1ccc(NC(=O)N(C)[C@H]2C[C@H]3c4[nH]c5ccccc5c4CCN3C(=O)[C@H]2CO)cc1 | 3717
40 | O=C(c1ccc(Cl)c(Cl)c1)N1CCC(=O)N([C@H](COCc2ccc(Cl)cc2)Cc2ccccc2)CC1 | 4017
41 | O=C(NC1CCCC1)C1c2ccccc2OCC(=O)N1CCc1c[nH]c2ccccc12 (stereo unspecified) | 5281
42 | Cc1ccc(CN2C(=O)CCC2(C)c2nnnn2Cc2ccccc2)cc1 (stereo unspecified) | 6041
43 | CSCCC(c1nnnn1C1CCCC1)N1CCN(C/C=C/c2ccccc2)CC1 (stereo unspecified) | 5503
44 | COc1cccc(-c2cnc(C(O)c3ccc(Cl)c(Cl)c3)[nH]2)c1 (stereo unspecified) | 2949
45 | Cc1cccc(NC(=O)COC(=O)CN2C(=O)C3CCCCC3C2=O)c1C (stereo unspecified) | 3728
46 | COc1ccc(F)cc1-c1cc(NC=O)c2ncc(-c3cccc(C(F)(F)F)c3)n2c1 | 2908
47 | Cc1noc(C)c1COc1ccc(C(=O)NCC2(N(C)C)CCCCC2)cc1 | 3759
48 | COc1cccc(C(C)(O)c2nc(-c3ccccc3)cs2)c1 (stereo unspecified) | 3665
49 | CCN(CC)CCN(C(=O)c1ccc2c(c1)CCCC2)c1nc2c(OC)cccc2s1 | 3977
50 | [O-][n+]1cc(Cl)cc(Cl)c1 | 3540

The final 4 compounds of the section before come first, to join the parts.
No. | Compound | Bead autofluor
47 | Cc1noc(C)c1COc1ccc(C(=O)NCC2(N(C)C)CCCCC2)cc1 | 3759
48 | COc1cccc(C(C)(O)c2nc(-c3ccccc3)cs2)c1 (stereo unspecified) | 3665
49 | CCN(CC)CCN(C(=O)c1ccc2c(c1)CCCC2)c1nc2c(OC)cccc2s1 | 3977
50 | [O-][n+]1cc(Cl)cc(Cl)c1 | 3540
51 | Cc1ccccc1CN(C)C[C@@H]1OCc2cnnn2CCCC(=O)N([C@@H](C)CO)C[C@H]1C | 3621
52 | O=C(CC[C@H]1O[C@@H](n2cnc3c(NC(=O)c4ccccc4)ncnc32)[C@H](O)[C@@H]1O)NCc1ccco1 | 5457
53 | Cn1c(=O)c2c(-c3ccccc3)n(-c3ccccc3N)cc2n(C)c1=O | 3626
54 | O=C1[C@@H](c2ccccc2)CC[C@@H]2C=CC[C@H]3CCN1[C@@H]32 | 5908
55 | CC(C)Oc1cccc(NC(=O)C2(C)CCN2C(=O)C(C)C)c1 (stereo unspecified) | 3348
56 | Cc1ccc(S(=O)(=O)N2CCC(=O)N([C@H](COCc3cccc(Cl)c3)C(C)C)CC2)cc1 | 5168
57 | O=C(Nc1ccc2c(c1)OCCO2)C1c2ccccc2OCC(=O)N1Cc1ccco1 (stereo unspecified) | 5687
58 | CC1(CO)CCCC1NCCNC1CCCC1(C)CO (stereo unspecified) | 5970
59 | O=c1[nH]c2ccccc2n1C1CCN(C(c2cccs2)c2nnnn2Cc2ccccc2)CC1 (stereo unspecified) | 5720
60 | CCc1nc2c(OCc3ccc(C(F)(F)F)cc3)cccn2c1N(C=O)Cc1ccc(OC)cc1 | 3590
61 | O=C(NCc1nnnn1-c1ccc(Cl)cc1)C1CC(=O)N(c2ccc(F)cc2)C1 (stereo unspecified) | 3541
62 | Cc1cccc(C)c1-n1nnnc1C(c1cccs1)N1CCC(n2c(=O)[nH]c3ccccc32)CC1 (stereo unspecified) | 6045
63 | CCc1nc2ccc(C(=O)N(C)C(C)C)cn2c1N(CC)Cc1cccc(Br)c1 | 3105
64 | C[C@@H]1CN([C@@H](C)CO)C(=O)CCCn2nncc2CO[C@H]1CN(C)S(=O)(=O)c1ccccc1C#N | 2818
65 | CC1(C(=O)Nc2ccc3c(c2)OCCO3)CCN1C(=O)C1(c2ccccc2)CC1 (stereo unspecified) | 3740
66 | Cn1c(NCc2ccccc2F)nc2cc(-c3ccsc3)sc2c1=O | 3734
67 | Cc1ccc([C@H]2N[C@]3(CCCN(Cc4ccc(F)cc4)C3=O)[C@H]3C(=O)N(C)C(=O)[C@@H]23)cc1 | 3827
68 | COc1cccc(C(O)c2nc(-c3cncnc3)cs2)c1 (stereo unspecified) | 3526
69 | COc1ccc(CN2C(=O)C(CC(=O)NCCCCc3ccccc3)CC(C(=O)N3CCCCCC3)=C2C)cc1 (stereo unspecified) | 5395
70 | CCc1nc2c(OCCOc3ccc(F)cc3)cccn2c1N(C)C(=O)c1ccc(OC)cc1 | 2950
71 | COC(=O)c1cnc(Nc2nc(C(N)Cc3ccc(Cl)cc3)cs2)nc1C(F)(F)F (stereo unspecified) | 3900
72 | C[C@H](CO)N1C[C@H](C)[C@@H](CN(C)Cc2ccc(Oc3ccccc3)cc2)OCc2cnnn2CCCC1=O | 3717
73 | Clc1ccc2nc(-c3ccco3)c(Cc3ccsc3)n2c1 | 4513
74 | O=C(Cn1cc(F)c(=O)[nH]c1=O)c1ccco1 | 3747
75 | CCOC(=O)[C@]12CCC=C1N(Cc1ccco1)C(=O)[C@H](CC(=O)N1CCN(C(=O)C3CC3)CC1)C2 | 5874
76 | C[C@@H]1CN([C@@H](C)CO)S(=O)(=O)c2ccc(C#CC(C)(C)O)cc2O[C@H]1CN(C)C(=O)C1CCCCC1 | 3758
77 | CCc1nc2ccc(C(=O)N3CCCC(C(N)=O)C3)cn2c1N(C)Cc1ccc(OC)cc1 (stereo unspecified) | 2743
78 | CCNC(=O)C1(C)CCN(C(=O)c2cccc(OC(C)=O)c2C)C1 (stereo unspecified) | 3883
79 | CCCCCCCCN1C(=O)[C@H](CC(=O)NCCCN2CCCC2=O)C[C@@]2(C(=O)OC)CCCCC=C12 | 6167
80 | CN1CCN(c2cccc3c2S(=O)(=O)N[C@H](Cc2ccccc2)CO3)CC1 | 5599
81 | COc1ccc(S(=O)(=O)N2CCOC2CNC(=O)C(=O)NCc2ccccn2)cc1OC (stereo unspecified) | 3776
82 | Cc1cc(C)cc(C(O)c2ncc(-c3ccccc3)[nH]2)c1 (stereo unspecified) | 3488
83 | CCOC1=C2[C@H](c3ccc(CC)cc3)N(S(=O)(=O)c3ccc(C)cc3)C[C@H]2C(C#N)(C#N)C(C#N)(C#N)C1 | 5771
84 | CCCCN1C(=O)C(CC(=O)NC2CCCC2)CC(C(=O)N(C(C)C)C(C)C)=C1C (stereo unspecified) | 3591
85 | COc1ccc(OC(F)(F)F)cc1CC1(C)C(=O)Nc2cccc(Cl)c21 (stereo unspecified) | 3341
86 | Cc1cccc(NC(=O)CN(C)S(=O)(=O)c2cnc[nH]2)c1C | 3372
87 | COc1cccc(CN2CCC2(C)C(=O)Nc2cccc(Oc3ccccc3)c2)c1F (stereo unspecified) | 2858
88 | O=C(COC(=O)/C=C/c1cccc(F)c1)NCc1ccc2c(c1)OCO2 | 3727
89 | Cc1cc(C)c(NC(=O)CNC(=O)c2cc(C3CC3)nc3c2cnn3C(C)C)c(C)c1 | 2944
90 | c1ccc2c(c1)-c1nc3ccccc3cc1C2N1CCCCC1 (stereo unspecified) | 3814
91 | COc1ccc(CNC(=O)c2ccc(-c3cccnc3)c3ccoc23)cc1OC | 3077
92 | COC(=O)c1ccc2nc(C3CCCCC3)c(Cc3ccccc3C(F)(F)F)n2c1 | 6227
93 | CCc1nc2c(OCc3ccc(C(F)(F)F)cc3)cccn2c1N(C)C(C)=O | 3324
94 | Fc1ccc(CCn2c(Cn3c(-c4cnccn4)nc4ccccc43)nc3ccccc32)cc1 | 6357
95 | COc1ccc(CN(C)C(=O)/C=C/[C@H]2O[C@@H](n3cnc4c(N)ncnc43)[C@H](O)[C@@H]2O)cc1OC | 5931
96 | CC(=O)Oc1ccc(Cn2c(C)c(C(=O)N(C)Cc3ccc(F)cc3)sc2=O)cc1 | 5743
97 | CCCCC[C@H](C)N1C[C@@H](COCc2ccccc2)Oc2cc(N3CCC[C@H]3COC)ccc2S1(=O)=O | 6235
98 | COc1ccccc1-c1cnc(C(O)c2ccc(Cl)c(Cl)c2)[nH]1 (stereo unspecified) | 3388
99 | CN(C)c1cc(C(=O)N(C)c2ccccc2)ncn1 | 3894
100 | CCCCN(C(C)=O)c1ccc2c(c1)C1CC2CCN1Cc1ccccc1 (stereo unspecified) | 3886

Continued:
No. | Compound | Bead autofluor
101 | OC[C@@H]1CN(CCN2CCOCC2)C[C@H](n2cnc3c(N4CCCC4)ncnc32)O1 | 2907
102 | CCOC(=O)C1(C)CCCCN1C(=O)c1ccc(N(C)C)cc1 (stereo unspecified) | 3398
103 | Cc1c(C(=O)NCc2cccc(Cl)c2)sc(=O)n1Cc1ccc(C(=O)N(C)C)cc1 | 5351
104 | Cn1c(=O)c2cc(NC(=S)NCc3ccccc3F)ccc2n1Cc1ccc(F)cc1 | 4007
105 | COc1ccc(CN(C)C[C@H]2OCc3cnnn3CCCC(=O)N([C@H](C)CO)C[C@@H]2C)cc1 | 3474
106 | COCc1cccc(-c2csc(C(NC(C)=O)c3ccccc3)n2)c1 (stereo unspecified) | 3929
107 | O=[N+]([O-])c1ccc2cn(C3OC(CO)C(O)C3O)nc2c1 (stereo unspecified) | 2946
108 | CS(=O)(=O)Nc1cccc(NC(=O)C2Cc3c(-c4cccc(C(N)=O)c4)ccnc3O2)c1 (stereo unspecified) | 3691
109 | Cc1cc(Br)cn2c(Cc3ccsc3)c(-c3cccc(Cl)c3)nc12 | 5411

Rewritten as labelled records: part of the list above
#106 COCc1cccc(-c2csc(C(NC(C)=O)c3ccccc3)n2)c1 (stereo unspecified)
  Bead autofluor: 3929

#107 O=[N+]([O-])c1ccc2cn(C3OC(CO)C(O)C3O)nc2c1 (stereo unspecified)
  Bead autofluor: 2946

#108 CS(=O)(=O)Nc1cccc(NC(=O)C2Cc3c(-c4cccc(C(N)=O)c4)ccnc3O2)c1 (stereo unspecified)
  Bead autofluor: 3691

#109 Cc1cc(Br)cn2c(Cc3ccsc3)c(-c3cccc(Cl)c3)nc12
  Bead autofluor: 5411

Screens (PubChem)

Only part of the results is shown; count on the stated rates, not on these rows.
